Assay outcomes: PubChem, several laboratories
RecA intein inh – Mtb RecA intein splicing inhibition; P9WHJ3; cell-free RecA intein splicing, fluorescence; inhibition, %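 (about 9 µM by stock and volumes)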; 290,000 compounds, 0.75% hits; AID 2221; in the data active means inhibition above about 30%; inconclusive means no clear call, values can overlap the other calls;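 further: 0% = vehicle wells and 100% = reference inhibitor control wells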
Target sequence (P9WHJ3 whole entry, looked up): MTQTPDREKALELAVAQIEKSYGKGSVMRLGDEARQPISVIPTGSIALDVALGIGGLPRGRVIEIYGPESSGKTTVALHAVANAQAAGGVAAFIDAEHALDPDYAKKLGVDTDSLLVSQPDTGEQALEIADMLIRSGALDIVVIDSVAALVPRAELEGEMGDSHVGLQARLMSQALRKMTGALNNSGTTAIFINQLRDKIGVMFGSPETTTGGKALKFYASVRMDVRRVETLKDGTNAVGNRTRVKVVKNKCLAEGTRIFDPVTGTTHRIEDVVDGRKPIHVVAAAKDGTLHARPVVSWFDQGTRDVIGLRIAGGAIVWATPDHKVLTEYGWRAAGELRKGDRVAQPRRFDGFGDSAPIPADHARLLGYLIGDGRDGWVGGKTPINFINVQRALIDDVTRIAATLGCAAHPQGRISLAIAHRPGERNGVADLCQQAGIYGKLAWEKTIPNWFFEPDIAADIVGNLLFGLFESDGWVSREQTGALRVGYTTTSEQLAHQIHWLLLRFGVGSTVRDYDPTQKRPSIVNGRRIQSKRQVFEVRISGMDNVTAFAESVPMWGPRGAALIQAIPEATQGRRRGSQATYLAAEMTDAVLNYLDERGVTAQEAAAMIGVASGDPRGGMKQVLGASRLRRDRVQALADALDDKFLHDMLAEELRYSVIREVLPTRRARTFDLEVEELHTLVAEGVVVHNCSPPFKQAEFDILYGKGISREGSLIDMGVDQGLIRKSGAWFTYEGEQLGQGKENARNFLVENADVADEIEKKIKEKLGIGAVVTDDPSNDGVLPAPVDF
Mtb growth – M. tuberculosis H37Rv growth inhibitors, H37Rv strain (AID 1626). one-dose inhibition, % at 10 µM; IC50 in µM for titrated hits. M. tuberculosis H37Rv growth inhibition; higher % means a stronger effect. 220,000 compounds, 0.95% hits;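 active means confirmed in a dose series; inconclusive means inhibition above 80% but not taken into the dose series; inactive means below 80% or under 30% at every dose of the series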;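 further: bacteria incubated seven days before Alamar blue readout; 0% = bacteria only wells and 100% = bacteria with antibiotic wells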
Arbovirus inh – blocks arbovirus infection | 200,000 compounds, 0.37% hits | inhibition, % at 10 µM | AID 1251 | arbovirus infection cell-based antiviral screen;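 active means inhibition from about 30%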;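 further: bluetongue infection of BSR cells; cell survival read as ATP light after 72 h; 0% = infected wells without compound and 100% = uninfected wells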
Mtb bLac sens – beta-lactam sensitization of Mtb H37Rv. M. tuberculosis H37Rv growth with meropenem, percent inhibition; hits of this screen are not shown here. 330,000 compounds, 0.27% hits. AID 434955. inhibition, % at 25 µM;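 active means about 74% or more and at least 40 points above the plate without the antibiotic, then above 30% in a dose series; inconclusive means first-round hits that could not be retested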;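 further: growth measured after seven days incubation then overnight dye step; 0% = bacteria only wells and 100% = bacteria with antibiotic; twin plates without the antibiotic show which effects depend on it; some results filed as inactive read as strong as hits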
YopH PTP inh – YopH (Yersinia) phosphatase inhibition. fluorescence Ex485/Em525. inhibition, %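 (about 10 µM by stock and volumes)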. 140,000 compounds, 0.16% hits. AID 898;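 active means inhibition of 50% or more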;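 further: controls were vehicle for no effect and minimum signal wells for full effect; inactives centre near -20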
Arbovirus inh repeat – further read-out of Arbovirus inh, marked with its call; inhibition, %; measured here: 10K subset replicate screen; many hits read low in the repeat;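 first of two repeat runs on a subset; 0% = infected and 100% = uninfected wells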
* = called active by the depositor; u = inconclusive; x = not tested or not shown.

SMILES	RecA intein inh	Mtb growth	Arbovirus inh	Mtb bLac sens	YopH PTP inh	others
CC(C)Oc1ccc(C2CC(=O)N(Nc3ccc([N+](=O)[O-])cc3[N+](=O)[O-])C2=O)cc1 (stereo unspecified)	1.4	-2%	x	-10	x
CC(C)c1ccc(NC(=O)COc2ccc(F)cc2C(=O)c2cnn(-c3ccccc3)c2)cc1	0.7	0%	-10	-3	-20
Cn1c(-c2ccccc2)cc2c3no[n+]([O-])c3ccc21	-1.4	<0.2µM*	-12	100	-45
Cc1cccc(CCNC(=O)C2CCC(CNS(=O)(=O)c3cccs3)CC2)c1 (stereo unspecified)	1.5	2%	3	-1	x
O=C(COc1ccc(/C=N/NS(=O)(=O)c2ccccc2)cc1)Nc1ccc(F)cc1	3.4	8%	3	-3	-40
Cc1ccccc1N(CC(=O)NC1CCCC1)C(=O)CS(=O)CC(=O)Nc1ccc2c(c1)OCO2 (stereo unspecified)	x	-5%	-1	-3	-16
Cc1nc2ccc(N3CCN(C)CC3)cc2nc1C	-106	-2%	-2	8	x
O=C(CCN1CCN(C(c2ccccc2)c2ccccc2)CC1)N/N=C/c1ccc(O)cc1O	12	-5%	-22	10	-50
CCCn1c(SCC(=O)N2CCN(c3ccc(OC)cc3)CC2)nc2c1c(=O)n(C)c(=O)n2C	-0.9	6%	-2	-3	-6
CC(=O)c1ccc(OC(=O)C2c3ccccc3Oc3ccccc32)cc1	-1.9	5%	-4	76	-35
O=C(O)CCNC(=O)c1ccc(Br)o1	-1.8	-3%	0	-3	-44
CCCC(c1nnnn1Cc1ccc(OC)cc1)N1CCN(c2ccccc2OC)CC1 (stereo unspecified)	4.6	12%	-9	8	7
CCN(CC)c1ccc(NC(=O)CN2CCN(c3ccccn3)CC2)cc1	-11	x	x	-2	x
CCN(Cc1ccncc1)C(=O)CCc1nnc(CCc2ccc(OC)cc2)o1	1.2	-6%	5	0	x
COc1ccc(CC(=O)N2CCCC(CNC(=O)c3ccccc3Cl)C2)cc1 (stereo unspecified)	-1.8	-6%	-1	-1	x
COc1cc(/C=N/n2c(C)nc3ccccc3c2=O)ccc1O	-0.9	x	x	-5	x
COc1ccc2[nH]c(=O)c(CN(C)C(=O)c3ccncc3)cc2c1	0.9	-4%	9	-5	-52
O=C(CNC(=O)c1ccco1)NCC(=O)OCc1ccc(F)cc1	4.0	x	x	6	x
Cc1nn(C)c(Cl)c1C(N)=O	-0.2	2%	-1	0	x
CCN(CC(=O)NCc1ccccn1)S(=O)(=O)c1cc(Cl)ccc1Cl	-0.7	x	x	-5	x

Some of these compounds in order of count of non-hydrogen atoms, descending.
SMILES	RecA intein inh	Mtb growth	Arbovirus inh	Mtb bLac sens	YopH PTP inh	others
CC(C)c1ccc(NC(=O)COc2ccc(F)cc2C(=O)c2cnn(-c3ccccc3)c2)cc1	0.7	0%	-10	-3	-20
CCN(Cc1ccncc1)C(=O)CCc1nnc(CCc2ccc(OC)cc2)o1	1.2	-6%	5	0	x
Cc1cccc(CCNC(=O)C2CCC(CNS(=O)(=O)c3cccs3)CC2)c1 (stereo unspecified)	1.5	2%	3	-1	x
COc1cc(/C=N/n2c(C)nc3ccccc3c2=O)ccc1O	-0.9	x	x	-5	x
Cn1c(-c2ccccc2)cc2c3no[n+]([O-])c3ccc21	-1.4	<0.2µM*	-12	100	-45
Cc1nc2ccc(N3CCN(C)CC3)cc2nc1C	-106	-2%	-2	8	x

(listing goes on)
SMILES	RecA intein inh	Mtb growth	Arbovirus inh	Mtb bLac sens	YopH PTP inh	others
CCn1cc([N+](=O)[O-])c(C(=O)N2CCCCCC2)n1	-4.0	x	x	-2	x
COc1cccc(NC(=O)COC(=O)CCCC2=NS(=O)(=O)c3ccccc3N2)c1	-4.7	x	x	3	x
Fc1ccccc1CCNCc1cccc(Cl)c1Cl	2.9	5%	3	10	6
Cc1ccccc1Nc1nnc(SCC(=O)NC(=O)Nc2ccc3c(c2)OCCO3)s1	-1.7	10%	-3	u	-10
Cc1ccc2nc(SCC(=O)Nc3ccc(C)c(Cl)c3)nc(=O)n2c1	-1.2	x	x	-7	x
COc1ccc(C2CC(c3cccs3)=NN2C(=O)CN2CCCCC2)cc1 (stereo unspecified)	1.1	7%	4	-5	x
O=C(O)c1ccccc1-c1ccc(/C=C2\SC(=O)N(c3ccccc3)C2=O)o1	-59	x	x	-1	x
COc1ccc(/C(N)=N/OC(=O)N2CCOCC2)cc1	-19	-6%	-22	0	x
CCOc1ccccc1/C=N/NC(=O)c1c(C)nc2ccc(Br)cn12	-1.3	x	x	-1	x
Cc1ccc(-n2c(-c3ccccc3)cc(=O)nc2C)cc1	-1.4	-3%	-1	14	-163
CN(C)/C=N/c1c(C#N)nnn1Cc1ccccc1	-2.7	-4%	0	-4	-27
COc1ccc(-n2c(=O)[nH]cc(C(=O)Nc3ccc(NC(C)=O)cc3)c2=O)cc1	-0.9	-5%	x	8	3
Cc1ccc(S(=O)(=O)N2CCOCC2)cc1NC(=O)CSc1nnc2cc(C)c3ccccc3n12	-0.5	-1%	-4	3	16
CC(=O)Cc1nsc(NC(=O)c2cc(-c3ccc(Cl)c(Cl)c3)oc2C)n1	1.0	-7%	3	0	-33
O=C(CCCCC(=O)Nc1ccccc1Cl)Nc1ccccc1Cl	-0.2	x	x	4	x
O=C(OCc1ccccc1Cl)C1CC(=O)N(Cc2ccco2)C1 (stereo unspecified)	4.9	x	x	4	x
O=C(COc1ccc(-n2cnnn2)cc1)NCCc1ccc(F)cc1	-1.3	7%	1	-3	-24
CC(C)(C)N1CC2([N+](=O)[O-])CN(C(C)(C)C)CC([N+](=O)[O-])(C1)C2	-0.4	7%	-1	6	13
Cc1csc(=O)n1CC(=O)OCC(=O)NNC(=O)c1ccccc1	-0.3	x	x	-12	x
Cc1cccc(Cc2nnc(CCC(=O)N(CC3CC3)CC3CCCO3)o2)c1 (stereo unspecified)	0.3	-4%	13	4	x
CC(C)c1ccccc1OCC(=O)N(C)CC(=O)Nc1ccc(F)cc1	0.0	x	x	-8	x
O=C(CN(c1ccccc1)S(=O)(=O)c1ccccc1)N1CCOCC1	0.7	-5%	1	-3	x
Cn1c(-c2ccccc2)cnc1SCC(=O)N1CCCc2ccccc21	1.6	1%	11	2	-21
CC(Cc1ccccc1)N1Cc2ccccc2C1 (stereo unspecified)	0.4	x	x	5	x
Cc1cccc2c1N(C(=O)c1ccco1)C(C)(C)c1ssc(=S)c1-2	-1.4	4%	6	0	-37
Cc1cc(/C=C(\C#N)C(=O)NCc2ccco2)c(C)n1-c1cccnc1	-9.4	-4%	x	-6	x
Cc1[nH]c2ccccc2c1CCNC(=O)CCC(=O)c1ccccc1	1.9	-10%	-5	-6	x
Cc1nc2ccc3[nH]snc3c2n1	1.8	-7%	-7	-2	-12
COc1ccc(CN(C)CC2CCCN(CCc3ccc(F)cc3)C2)cc1OC (stereo unspecified)	-1.0	x	x	3	x
O=C(CCn1nc(-c2ccccc2)ccc1=O)NCCCN1CCCCCC1	-1.9	x	8	6	-28
O=C(OCC1CCCN2CCCCC12)c1ccc2c(c1)OCO2 (stereo unspecified)	-4.9	4%	0	-1	-26
Cc1cccc(C(=O)NC(C(=O)Nc2nc(-c3ccccn3)cs2)C(C)C)c1 (stereo unspecified)	2.5	u	-25	77	x
CC(=O)c1ccc(NC(=S)N2CCCCCC2)cc1	x	1%	-4	1	x
C#CCNC(=O)C1=C[C@@H](C2CCCCC2)C[C@@H](OCc2ccc(CO)cc2)O1	7.9	-6%	0	-2	x
Cc1sc2ncn(CC(=O)N3CCN(c4ccccc4)CC3)c(=O)c2c1S(=O)(=O)N1CCOCC1	-4.7	x	x	-2	x
COc1ccccc1NC(=O)c1csc(-n2nc(C)cc2C(F)(F)F)n1	0.9	1%	3	-3	-29
CCC(C(=O)O)n1nc(-c2ccccc2)c2cc(Cl)ccc21 (stereo unspecified)	0.1	-2%	14	5	x
CC(C)CNC(=O)CC1Nc2ccccc2NC1=O (stereo unspecified)	-0.5	0%	6	0	x
CCn1c(SCc2nc(-c3ccc(OC)c(OC)c3)no2)nnc1-c1cccs1	-0.2	-1%	-5	1	-42
Cc1ccc(C)c(CN2C(=O)CSc3ccc(C(=O)N4CCCC4)cc32)c1	1.5	x	x	6	x
CC1SC(c2ccc(F)cc2)NC1=O (stereo unspecified)	7.2	-8%	-1	-4	x
O=S(Cc1cc(Sc2ccccc2)nc(-c2ccccc2)n1)c1ccccc1 (stereo unspecified)	-1.1	9%	-11	24	-9
COc1ccccc1NC(=O)C(=O)N/N=C/c1ccc([N+](=O)[O-])s1	-5.5	4%	-3	x	x
Cc1nnsc1C(=O)Nc1cccc(Cl)c1Cl	1.3	-9%	0	3	-7
CN1CCN(C(=O)c2c(O)c3cccc4c3n(c2=O)CC4)CC1	-2.2	1%	4	-4	7
COc1ccccc1CN1C(=O)CCC1(C)C(=O)NCc1cccnc1 (stereo unspecified)	0.9	-1%	-6	0	-21
Cc1ccc(-n2c(C)nnc2SCC(=O)NC2CCCC2)cc1	0.5	x	x	-5	x
O=C(CN(Cc1ccco1)C(=O)CNS(=O)(=O)c1ccc(F)cc1)NCCc1ccccc1	-1.0	-5%	-1	-10	-28
N#C/C(=C\c1ccc(OC(=O)c2ccc(Cl)s2)cc1)c1nc2ccccc2[nH]1	-5.8	74%	-3	92	-14
Cc1ccccc1NC(=O)CCNS(=O)(=O)c1ccc2[nH]c(=O)oc2c1	1.2	x	x	-5	x
COc1ccc(CN2CCNC(=O)C2CC(=O)NC2CCCCCC2)c(F)c1 (stereo unspecified)	3.5	x	x	-1	x
O=C(O)CC(SCC(=O)Nc1ccc(S(=O)(=O)N2CCCC2)cc1)C(=O)O (stereo unspecified)	0.8	-4%	3	-8	x
O=C(Cc1ccccc1F)Nc1nc(-c2ccc(F)c(F)c2)cs1	12	x	x	15	x
COc1ccc(-c2nc(-c3ccccc3)ncc2S(C)(=O)=O)cc1	6.8	4%	-2	1	x
Cc1nc(NC(=O)CN2CCOCC2)sc1C(=O)N(C)C	0.6	x	x	-7	x
COc1ccc(C(=O)N/C(=C\c2ccc3c(c2)OCO3)C(=O)Nc2cccc(C(=O)O)c2)cc1	-0.5	2%	0	4	x
CC1=CC2=NC(=O)/C(=C\c3cccn3CCOc3cccc(C)c3)C(=N)N2O1	9.1	4%	-13	-5	-10
COC(=O)c1nc[nH]c1C(=O)OC	-2.3	-3%	x	-11	x
CCCOc1ccc(/C(O)=C2/C(=O)C(=O)N(CCOC)C2c2cccnc2)cc1 (stereo unspecified)	0.1	x	4	-2	-44
Cc1ccc2c(c1)C1CN(C)CCC1N2C(=S)Nc1ccc(OC(F)F)cc1 (stereo unspecified)	-1.7	1%	10	-12	x
Carrying on.
SMILES	RecA intein inh	Mtb growth	Arbovirus inh	Mtb bLac sens	YopH PTP inh	others
CCN(CC(=O)NCc1cccs1)C(=O)c1cccc(S(=O)(=O)Nc2ccccc2OC)c1	0.1	x	x	-10	x
Cc1cc(Nc2ccccc2C(=O)O)n(-c2cccc(Cl)c2)n1	2.1	-13%	x	-12	x
COc1ccc(-c2ccc(CCC(=O)O)n2-c2ccccc2O)cc1	-1.2	10%	x	-5	x
Cc1ccc(C(=O)NCCCN2CCOCC2)cc1	-1.8	4%	x	-2	-17
CCN(CC)C(=O)c1cnn(-c2ccccc2)c1NC(=O)c1cccs1	1.4	-7%	4	-18	-31
Cc1cc(C)c(NC(=O)CCN2CCN(Cc3ccccc3)CC2)c(C)c1	-1.4	x	x	-7	x
CC1(CC(=O)N/N=C/c2cc(Br)c(O)cc2O)OCCO1	-3.7	-6%	-22	6	-79
COc1ccc(-c2nc(CS(=O)(=O)CC(=O)NCCCN3CCOCC3)c(C)o2)cc1	0.1	x	x	-7	x
O=C(Nc1cccc(NC(=S)NC(=O)c2cccs2)c1)c1ccccc1	-2.2	-2%	-10	1	-19
COc1cc2[nH]c(=O)n(CCCCCC(=O)NCCCN3CCC(C)CC3)c(=O)c2cc1OC	x	-2%	8	14	8	Arbovirus inh repeat=1
COc1ccc(NC(=O)NN2CCN(C)CC2)cc1	1.3	x	x	1	x
CCCC(=O)N1CCN(c2ccc(NC(=O)c3ccc4c(c3)OCCO4)cc2)CC1	-0.5	x	x	0	x
COC(=O)c1cc(S(=O)(=O)n2nc(C)c(Br)c2C)c(Cl)cc1Cl	8.9	2%	12	0	-15
C=CCN(Cc1cc(OC)ccc1OC)S(=O)(=O)N(C)C	3.3	-2%	-2	2	-46
CSc1n[nH]c(NC(=O)c2c(-c3c(Cl)cccc3Cl)noc2C)n1	1.3	-4%	x	-16	x
N#Cc1cc2c(nc1SCc1ccccc1)CCCCC2	11	5%	2	-3	-4
Cn1nc(C(=O)OCC(=O)c2ccc[nH]2)c2ccccc2c1=O	0.1	1%	0	-3	x

Not all compounds are listed (hit frequency here may not be typical).
